Compound activity as filed in PubChem BioAssay.
Bfl-1 A1 inh = caspase 3/7 activation in MEF A1-2A-BIM cells, primary screen, A1 inhibitor project, cell-based, luminescence, HTS; Caspase-Glo 3/7 luminescence, 3 h; percent of clofoctol response, vehicle zero; caspase activation, % (concentration not given with the values); 0.066% of 330,000 active; AID 2462, 2010;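 active = over half of replicate activation scores above 10%, or exactly half above 10 with the replicate mean above 10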;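 note: wells of about 30 µL received 50 nL stock; many hits fall short of the cut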
Beta cell apopt = inhibitors of cytokine-induced beta cell apoptosis, primary screen, luminescence; INS-1E cytokine-induced death, ATP luminescence, 48 h; percent of positive-control rescue, neutral wells zero; protection from apoptosis, % (concentration not given with the values); 0.8% of 300,000 active; AID 435005, 2010;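 active = all replicates at 75% or more, or half of them and the mean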;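 note: 0% = cytokine-treated negative control wells and 100% = positive control rescue; higher means more ATP so stronger rescue from cytokine killing; wells of about 40 µL received 100 nL stock; the first replicate is given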
T cruzi inh = inhibitors of intracellular T. cruzi growth, primary screen, luminescence, NIH3T3 host cells; 1.4% of 300,000 active; inhibition, % (no concentration beside the values); T. cruzi beta-gal in NIH3T3, 90 h;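 active = mean inhibition across valid replicates above about 55%, limit read from the data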;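 note: signal also drops with host cell toxicity which is not excluded here; 0% = plate median of DMSO wells and 100% = zero luminescence signal; higher percent means less beta-gal luminescence so fewer parasites; stock transfer was 50 nL into about 50 µL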
UCH37 inh = inhibitors of human UCH37 deubiquitinase, primary screen, biochemical, Ub-AMC cleavage, fluorescence. Ubiquitin carboxyl-terminal hydrolase isozyme L5 (Homo sapiens), Q9Y5K5. AID 588478, 2011. purified proteasome/UCH37. 0.33% of 330,000 active. inhibition, % (test concentration not listed);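 active = mean of two replicates above 20%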;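 note: 0% = compound-free wells with enzyme and 100% = wells lacking proteasome; stock transfer was 100 nL into about 20 µL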
Target sequence (Q9Y5K5 whole entry, looked up): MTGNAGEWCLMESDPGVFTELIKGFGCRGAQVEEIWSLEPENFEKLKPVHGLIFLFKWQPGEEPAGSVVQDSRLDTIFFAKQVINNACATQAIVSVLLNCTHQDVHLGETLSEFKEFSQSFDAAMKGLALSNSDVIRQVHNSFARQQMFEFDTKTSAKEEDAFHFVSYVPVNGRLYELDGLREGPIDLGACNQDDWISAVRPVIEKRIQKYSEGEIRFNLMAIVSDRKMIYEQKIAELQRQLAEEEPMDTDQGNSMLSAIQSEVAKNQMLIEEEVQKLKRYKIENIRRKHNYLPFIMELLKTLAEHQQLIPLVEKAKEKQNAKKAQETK
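Test system – human UCH37 enzyme supplied as purified proteasome complex · Incubation – 30 min preincubation with enzyme, 25 min cleavage at room temperature · Detection – AMC fluorescence from Ub-AMC cleavage, excitation 355 nm, emission 460 nm · Benchmarks – no-proteasome wells (full inhibition) and compound-free wells (no inhibition)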
AF4-AF9 inh = inhibitors of AF4 peptide binding to AF9, primary screen, biochemical, AlphaScreen, biotin-AF4 peptide, FLAG-AF9, single point | Protein AF-9 (Homo sapiens), P42568 | 0.47% of 350,000 active | inhibition, % at 10 µM;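 active = every replicate reaching a set inhibition limit, whatever the replicate mean, cut at about 25% in these data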;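 note: 0% = plate neutral control median and 100% = total signal loss; the record names both 10 and 1 µM as test concentration; the first replicate is given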
Target sequence (P42568 whole entry, looked up): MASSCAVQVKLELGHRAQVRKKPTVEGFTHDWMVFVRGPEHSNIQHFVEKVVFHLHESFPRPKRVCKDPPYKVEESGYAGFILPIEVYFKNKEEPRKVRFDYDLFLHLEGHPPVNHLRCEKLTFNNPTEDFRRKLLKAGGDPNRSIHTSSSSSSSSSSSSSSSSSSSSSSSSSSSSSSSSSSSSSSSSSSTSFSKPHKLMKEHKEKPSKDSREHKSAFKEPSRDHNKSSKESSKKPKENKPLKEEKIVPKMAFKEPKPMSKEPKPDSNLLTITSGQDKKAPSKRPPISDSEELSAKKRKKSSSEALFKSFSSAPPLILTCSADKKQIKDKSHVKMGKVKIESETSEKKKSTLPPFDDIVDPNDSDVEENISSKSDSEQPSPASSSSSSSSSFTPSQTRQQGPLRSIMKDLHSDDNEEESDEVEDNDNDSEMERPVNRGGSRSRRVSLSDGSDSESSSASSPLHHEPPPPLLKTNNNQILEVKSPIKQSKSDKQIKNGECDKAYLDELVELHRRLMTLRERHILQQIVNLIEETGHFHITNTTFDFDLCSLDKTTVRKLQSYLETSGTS
Ecoli rRNA inh = reduced GFP signal of wild-type E. coli, primary screen, bacterial rRNA inhibitor project, GFP/RFP fluorescence, OD600, single point; E. coli WT GFP vs humanized-ribosome RFP mutants, 24 h; hits give low values; DMSO median 0, no signal -100; GFP signal change (wild-type ribosome), % (concentration not given with the values); 1.6% of 350,000 active; AID 720706, 2013;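 active = significant combined selectivity score with lowered wild-type GFP, culture density cut under 30%, mutant RFP and density less affected; inactive = any of these conditions unmet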; note: one replicate is shown; some compounds called inactive have numbers as strong as hits
Ecoli growth = E. coli growth inhibition, primary screen, OD600 | Escherichia coli growth, 23 h; hits give low values | OD600 absorbance (test concentration not listed) | 0.21% of 330,000 active;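 active = OD600 absorbance below the run mean of sample wells minus 3.6 SD, in any replicate, cut at about 0.56 in these data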;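 note: stock transfer was 300 nL into about 60 µL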
FGF22 binding = binders of human FGF22 protein, primary screen, FGF22 synaptogenesis inhibitor project, biophysical, thermal shift, single point | 1.5% of 340,000 active | Fibroblast growth factor 22 (Homo sapiens), Q9HCT0 | calls only at 9.99 µM | recombinant FGF22 thermal shift, SYPRO orange fluorescence; percent of sucrose octasulfate shift, DMSO zero | AID 651658, 2012;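 active = melting point raised past a set limit in the mean and every replicate; three in four hits are not shown here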
Ecoli rRNA inh OD600 = further read-out of Ecoli rRNA inh, marked with its call; OD600 change, %; measured here: OD600 growth;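 optical density of the mix in the first replicate; 0 = DMSO median and -100 = no signal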
Ecoli rRNA inh RFP = recorded beside Ecoli rRNA inh, whose call it bears; RFP signal change, %; measured here: RFP humanized mutant strains;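 first replicate; 0 = DMSO median and -100 = no signal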
Active calls of the source: *; i = inactive; · = no result given; + = active, no number. An excerpt, so the mix of outcomes need not match the whole.

SMILES	Bfl-1 A1 inh	Beta cell apopt	T cruzi inh	UCH37 inh	AF4-AF9 inh	Ecoli rRNA inh	Ecoli rRNA inh OD600	Ecoli rRNA inh RFP	Ecoli growth	FGF22 binding
CCOC(=O)C1CCCN(C(=O)c2cc(Cl)ccc2NC(=O)C2=C(C)OCCS2)C1 (centres undefined)	-1.8	-4.5	0.1	6.3	1.1	-14.5	-7.2	-4.3	0.657	i
Cc1noc(NS(=O)(=O)c2ccc(NC(=O)C34CCC(CC3)C4)cc2)c1C	-0.1	-2.6	7.3	-0.5	·	·	·	·	0.669	·
C=CCSC1=C(C#N)C(c2ccc(C(C)C)cc2)CC(=O)N1 (centres undefined)	0.2	·	-10.9	·	12.6	-1.1	4.9	0.8	·	i
COc1ccc(N2CCN(CC(=O)Nc3ccc(SC(F)F)cc3)CC2)cc1	0.6	-6.0	-10.7	2.9	8.2	-27.0	-31.9	-2.6	0.707	i
COc1ccccc1C(c1nnnn1Cc1ccccc1)N1CCC(C(N)=O)CC1 (centres undefined)	-0.1	-4.0	-12.9	1.8	·	·	·	·	0.674	·
COCCCN1C(=O)C(=O)/C(=C(/O)c2ccccc2)C1c1ccc2c(c1)OCO2 (centres undefined)	0.7	·	-3.1	12.6	·	·	·	·	0.673	·
Cc1c(C(=O)NCCC2=CCCCC2)oc2ccc(S(=O)(=O)N3CCOCC3)cc12	-0.6	14.2	·	3.8	·	·	·	·	0.69	·
Cc1ccc(Nc2ccccc2N)cc1	0.3	-7.6	10.4	0.8	49.0*	-42.2	-61.6	7.2	0.667	·
CC(C)Cc1nccs1	-0.2	-0.6	·	-0.8	-1.5	7.6	4.2	8.7	0.712	i
CCOC(=O)c1cc2c(C)n(-c3ccc(OCC)cc3)c(C)c2cc(C(=O)OCC)c1=O	-0.4	0.1	11.9	1.3	-55.5	-5.3	-10.3	14.6	0.701	i
O=C(CCOc1ccccc1)Nc1ccnn1C1CCN(Cc2ccccc2)CC1	-0.6	3.0	11.1	1.5	-2.4	-1.2	-4.8	-1.3	0.698	i
CCN(c1ccccc1)S(=O)(=O)c1cc2c(cc1C)NC(=O)CO2	0.2	-1.9	4.3	7.1	4.0	-4.2	-21.1	-4.6	0.789	i
O=C(NCCc1ccc2c(c1)OCCO2)c1cccc(F)c1	-2.0	13.9	-10.9	2.1	-2.0	4.0	-4.5	-1.4	0.705	+
O=C(COC(=O)c1c2c(nc3ccccc13)CCCC2)c1ccc(Br)s1	0.1	-7.2	-9.7	5.7	0.8	·	·	·	0.729	i
CC1=NN(c2ccccc2)C(=O)C1C=Nc1ccccc1O (centres undefined)	-1.4	20.8	-14.4	4.3	-1.7	-18.8*	-8.7*	1.9*	0.659	i
COc1ccccc1Nc1nc(-c2cccc([N+](=O)[O-])c2)nc2ccccc12	0.3	11.2	14.4	5.0	·	·	·	·	0.707	·
COc1ccc(CNc2nc3nc(C)c(Cl)c(=O)n3[nH]2)cc1OC	-0.7	-3.8	-4.7	1.9	·	·	·	·	0.721	·
COc1ccc(C(=O)N[C@H](C(=O)Nc2sccc2C(N)=O)C(C)C)cc1	0.3	-1.3	0.7	1.7	1.0	-21.9	-33.9	-6.8	0.682	i
CCCCOc1ccc(S(=O)(=O)Nc2cccnc2)cc1	0.5	14.0	-15.5	2.7	·	·	·	·	0.663	·
CC(C)c1ccc(CN(C(=O)C2COc3ccccc3O2)C2CCS(=O)(=O)C2)cc1 (centres undefined)	-0.6	-3.5	26.8	1.5	·	·	·	·	0.596	·
COCCN(C(=O)c1ccc(COc2ccccc2)o1)c1c(N)n(CC(C)C)c(=O)[nH]c1=O	-1.5	-5.8	·	0.4	0.4	6.5	4.8	1.2	0.634	i
CCCCOc1ccccc1C(=O)N(Cc1ccco1)C1CCS(=O)(=O)C1 (centres undefined)	0.0	-1.9	-0.9	2.2	4.1	1.5	6.0	-1.5	0.736	i
CC(=O)Nc1ccc2c3c(cccc13)C(=O)N(c1ccccc1)C2=O	0.1	-0.8	-23.9	i	-0.6	-1.3	3.4	2.0	0.665	i
Cc1ccccc1C(=NC(=O)c1ccccc1)c1ccccc1	-0.4	-0.1	-22.1	1.1	·	·	·	·	0.746	·
Cc1ccc(OCc2nnc(SCC(=O)C(C)(C)C)n2Cc2ccco2)cc1	0.4	-2.1	22.5	-1.6	·	·	·	·	0.706	·
CCn1c(CNC(=O)C23CC4CC(CC(C4)C2)C3)nnc1SC	-0.5	1.3	-7.7	2.0	0.6	3.0	10.2	0.1	0.667	i
CC(=O)c1ccc(S(=O)(=O)Nc2ccc(-n3c(C)nc4ccccc4c3=O)cc2)cc1	-1.9	0.8	10.4	3.9	0.1	-1.1	-10.6	-0.2	0.689	i
Nc1ccc(NC(=O)c2ccccc2)c2c1C(=O)c1ccccc1C2=O	-0.1	8.8	-6.0	3.8	·	·	·	·	0.683	·
C[C@@H](C(=O)N[C@H](C(=O)O)c1ccccc1)n1nnc2ccccc2c1=O	0.3	-5.9	-10.8	1.0	-3.2	10.1	9.7	0.8	0.682	i
Cc1ccc(NS(=O)(=O)c2ccc(OCC(=O)N3CCOCC3)cc2)cc1	-1.0	4.4	-14.8	0.0	·	·	·	·	0.695	·

One compound at a time, from the list above. Order of values: Bfl-1 A1 inh | Beta cell apopt | T cruzi inh | UCH37 inh | AF4-AF9 inh | Ecoli rRNA inh | Ecoli rRNA inh OD600 | Ecoli rRNA inh RFP | Ecoli growth | FGF22 binding
Cc1ccccc1C(=NC(=O)c1ccccc1)c1ccccc1 is listed with -0.4 | -0.1 | -22.1 | 1.1 | · | · | · | · | 0.746 | ·
O=C(COC(=O)c1c2c(nc3ccccc13)CCCC2)c1ccc(Br)s1 is listed with 0.1 | -7.2 | -9.7 | 5.7 | 0.8 | · | · | · | 0.729 | i

Going on with the list.
SMILES	Bfl-1 A1 inh	Beta cell apopt	T cruzi inh	UCH37 inh	AF4-AF9 inh	Ecoli rRNA inh	Ecoli rRNA inh OD600	Ecoli rRNA inh RFP	Ecoli growth	FGF22 binding
Cc1ccccc1Cn1c(C)nc2ccc([N+](=O)[O-])cc2c1=O	-0.3	-5.9	5.0	6.8	1.8	10.1	3.4	2.0	0.732	i
CCOc1cccc(=O)c2c(C)n(CC3CCCO3)c(C)c12 (centres undefined)	·	-4.5	6.3	6.2	·	·	·	·	0.668	·
CCOc1ccccc1C(=O)N1CCN(c2ccc(C(F)(F)F)cn2)CC1	-0.5	-5.2	-14.7	-1.6	-0.1	-31.9	-56.8	-1.0	0.686	i
COc1ccc(C(=O)NCCc2nnc(SCC(=O)Nc3ccccc3F)n2C)cc1	0.8	-1.6	2.6	2.7	-0.8	4.6	9.1	3.5	0.702	i
CCN1CCN(CC(O)COc2ccc3c(C)cc(=O)oc3c2)CC1 (centres undefined)	0.3	-1.6	22.3	-132.0	0.8	·	·	·	0.669	i
Cc1ccc(C)n1-c1ccc(N2CCOCC2)cc1	0.8	1.8	23.2	3.0	·	·	·	·	0.649	·
CCOc1ccc(S(=O)(=O)N(CCO)CCO)cc1-c1nc2c(C(C)(C)C)nn(C)c2c(=O)[nH]1	-1.6	11.4	21.1	1.8	·	·	·	·	·	·
CCOc1nc(-c2ccc(Cl)cc2Cl)ccc1C#N	0.7	3.0	-19.6	-0.1	·	·	·	·	0.649	·
CC(C(=O)N1CCCCC1)n1ncn2cccc2c1=O (centres undefined)	0.6	-6.0	-10.9	2.5	·	·	·	·	0.703	·
CN(C(=O)CSc1cccc[n+]1[O-])c1ccccc1	0.3	-0.9	·	3.2	-5.1	1.1	7.5	-3.6	0.701	i
O=C(CCC1CCCCC1)Nc1nccs1	-1.9	-9.1	-13.4	3.7	-5.1	-6.0	-8.8	-0.9	0.695	i
COc1ccc(-c2nc(CS(=O)CC(=O)NCCC3=CCCCC3)c(C)o2)cc1 (centres undefined)	-2.5	-10.5	13.1	5.8	-5.1	-12.1	-47.0	8.0	0.661	i
O=NN1CCN(c2ccncc2S(=O)(=O)N2CCCCC2)CC1	0.0	·	-5.0	·	0.0	9.5	9.3	-0.7	·	i
O=C(CCCc1ccccc1)Nc1cccc(C(=O)O)c1	0.6	0.4	-16.8	2.3	-0.4	10.0	6.8	-4.7	0.654	i
COc1ccc(S(=O)(=O)N2CCCCCC2)cc1NC(=O)c1c2c(nc3ccccc13)CCN(Cc1ccccc1)C2	-0.3	13.0	52.9	5.7	·	·	·	·	0.74	·
O=C(O)c1c[nH]c2ccc([N+](=O)[O-])cc2c1=O	·	·	·	6.1	-3.2	6.3	11.5	-1.7	0.716	i
N/C(=N\OC(=O)c1ccc2ccccc2c1)c1ccccc1Cl	-0.7	-6.3	71.5*	0.5	-4.3	3.1	5.2	2.7	0.727	i
COC(=O)c1nn(-c2ccc(Cl)cc2)c(=O)cc1Sc1ccccn1	0.2	-5.7	-11.2	3.3	·	·	·	·	0.659	·
CC(=O)n1cc([C@H]2C=C(C(=O)Nc3ccccc3)O[C@@H](OCc3ccc(CO)cc3)C2)c2ccccc21	0.1	23.4	50.0	5.7	·	·	·	·	·	·
COc1ccc(-c2nnc(SCC(=O)O)n2Cc2ccccc2)cc1	-0.3	-5.4	-5.2	·	-1.3	1.3	7.0	3.4	·	i
Cc1ccc(OS(=O)Nc2cccc3nccnc23)cc1 (centres undefined)	0.3	6.8	-27.7	4.4	4.1	-58.2	-78.2	-21.4	0.693	i
Cc1csc2nc(CNC(=O)C3CCCCC3)cn12	1.1	-3.4	-6.7	5.3	10.9	-0.7	2.8	1.1	0.735	i
